Screens deposited in PubChem BioAssay by National Center for Advancing Translational Sciences (NCATS).
AmpC nodet inh: AmpC beta-lactamase inhibition, detergent-free assay. P00811. AmpC nitrocefin hydrolysis, absorbance 480 nm, no detergent; potencies from a single point are estimates. Potency, µM (titrated, usually from 28.7 µM), without a hit: at the highest dose activity change, negative = inhibition. 1.8% of 71,000 active. AID 585; active = falling curve, for most hits resting on a single point; inconclusive = weak or doubtful change; inactive = flat or rising curve; further: % of control where 0% means no effect; about half of the hits show no inhibition at the top dose; a quarter of the inactives give rising signals
Target sequence (P00811 whole entry, looked up): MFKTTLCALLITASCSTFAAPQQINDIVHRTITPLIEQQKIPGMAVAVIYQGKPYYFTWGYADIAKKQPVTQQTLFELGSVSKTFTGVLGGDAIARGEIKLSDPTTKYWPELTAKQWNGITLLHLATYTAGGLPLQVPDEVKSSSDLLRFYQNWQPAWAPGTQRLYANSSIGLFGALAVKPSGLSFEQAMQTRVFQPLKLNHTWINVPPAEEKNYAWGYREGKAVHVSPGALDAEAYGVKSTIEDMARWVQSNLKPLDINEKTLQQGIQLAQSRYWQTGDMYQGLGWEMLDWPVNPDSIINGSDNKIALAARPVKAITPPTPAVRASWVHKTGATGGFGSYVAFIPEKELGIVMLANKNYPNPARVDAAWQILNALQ
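Enzyme, pH 7.0 phosphate. Compound titrations were pre-incubated with AmpC for 15 min at room temperature before nitrocefin (stock 800 uM) addition; product formation was recorded at 480 nm every 20 s for 4 min.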
Numbers without * were called inactive; ? = inconclusive; & = joins results of further samples; [ ] = another dose, or the depositor's remark. Potency means the concentration at half of the fitted maximal effect. The list is partial, so the mix of outcomes need not match the whole.

SMILES	AmpC nodet inh
COc1ccccc1-c1cc(C(=O)Nc2ccccc2SC)no1	-13.4%
CC1CCCN(C(=O)C23CCC(C)(C(=O)C2)C3(C)C)C1 (centres undefined)	17.2%
Cn1c2ccccc2c2c(C(=O)NCC3CCCO3)cn(C3CCCC3)c(=O)c21 (centres undefined)	59.4%
COc1ccc2c(c1OC)C(=O)NC(C)=C(C(=O)OC(C)(C)C)C2O (centres undefined)	8.7%
Cc1sc2nc(CN3CCOCC3)nc(N3CCC(C(N)=O)CC3)c2c1C	24.1%
COc1cc(NC(=O)CN2C(=O)c3ccccc3S2(=O)=O)c(OC)cc1Cl	-3.2%
COC(=O)[C@@]1(Cc2ccccc2)[C@H]2c3cc(C(=O)N(C)C)n(Cc4nc5ccccc5[nH]4)c3C[C@H]2CN1C(=O)c1ccccc1	172.6%
COc1ccccc1NC(=O)C1C2C=CC3(CN(Cc4cccnc4)C(=O)C13)O2 (centres undefined)	5.8%
Cc1occc1-c1nnc(SCC(=O)N2CC(=O)Nc3ccccc32)n1CC(C)C	12.9%
COc1cccc(OC)c1C(=O)Nc1ccccc1N1CCCC1	-8.7%
O=C1c2ccccc2S(=O)(=O)N1CC(O)Cn1ccc2ccccc21 (centres undefined)	-9.4%
N#Cc1nc(-c2ccc(OCc3ccc(Cl)cc3)cc2)oc1N1CCC(C(N)=O)CC1	0.2%
Cc1ccc2[nH]c(=O)c(-c3noc(-c4ccncc4)n3)cc2c1	-18.3%
CCOC(=O)C(C)On1c(SC(C)C(=O)OCC)nc2ccccc2c1=O (centres undefined)	51.1%
C[N+](C)(C)CC[N+]1(C)Cc2c(Cl)c(Cl)c(Cl)c(Cl)c2C1	16.1%
CCN1C(=O)c2c(C)nc3ccccc3c2C1=O	8.2%
Cc1cccc(C)c1NC(=O)Cn1c(=O)n(CCCC(=O)NCc2ccco2)c(=O)c2sccc21	0.2%
CCSC1=C(C#N)C(c2ccc(OC)c(OC)c2)CC(=O)N1 (centres undefined)	2.3%
Cn1c(Cc2ccccc2)nnc1SCC(=O)NC1CCCCC1	20.8%
C[C@@]12CC[C@H]3[C@H](CCC4=CC(=O)CC[C@H]43)[C@H]1CC[C@H]2OC1(O)C(=O)c2ccccc2C1=O	7.6%[5.75 µM]
CCn1c(SCC(=O)NCc2ccc3c(c2)OCO3)nnc1-c1cccs1	22.8%
Cn1c(=O)[nH]c(=O)c2c1nc(Br)n2CCSc1nc2ccccc2o1	-3.1%
O=S1(=O)OC(c2ccc(O)cc2)(c2ccc(O)cc2)c2ccccc21	-4.7%[5.75 µM]
O=c1c2[nH]c3ccccc3c2ncn1Cc1cccnc1	-2.2%
O=C(Nc1cccc(F)c1)N1CC[C@@]2(CCCN(C(=O)c3ccncc3)C2)C1	10.4%
Cc1ccc(NC(=O)COc2ccc3oc4c(c3c2)CCCC4)nc1	-4.8%
O=c1ccn(Cc2ccccc2Cl)cc1	-4.5%
COc1ccc(OC)c(C(c2nnnn2CC2CCCO2)N2CCN(C)CC2)c1 (centres undefined)	-8.6%
COc1ccc(Cl)cc1NC(=O)N1CCN(C2CCCCC2)CC1	32.1%
Cc1cc(C(=O)COC(=O)CN(C)S(=O)(=O)c2ccc(Cl)cc2)c(C)n1Cc1cccs1	-12.3%
O=C(c1ccc(N2CCCC2=O)cc1)N1CCOCC1	-7.6%
COc1ccc(Br)cc1C1CC(=O)N2CN(C)CSC2=C1C#N (centres undefined)	3.98µM*[single pt active]
Cc1nc2ccccc2c(=O)n1NCc1cccs1	-9.2%
CCc1nc2oc(C(=O)c3ccccc3)c(N)c2c2c1COC(C)(C)C2	46.0%
COc1cccc(Nc2ncc3nc(-c4cccs4)c(=O)n(CCC#N)c3n2)c1	-0.4%
CCn1c(=O)c2c(nc3n2CCCN3CCc2ccccc2)n(C)c1=O	65.3%
COc1ccc(C(=O)NCC(=O)Nc2ccccc2)cc1OC	1.2%
CCOC(=O)Nc1nc(C)c(C(=O)N(C)C)s1	-6.7%
COc1cccc(N2C(=O)c3ccncc3C2=O)c1	0.7%
COc1ccc(CCNC(=O)Cn2cnc3c(nnn3Cc3ccc(C)cc3)c2=O)cc1OC	37.0%
Nc1nc(NC(=O)CCCC(=O)O)nn1-c1ccccc1	-2.0%
COc1cc(C(=O)O)c([N+](=O)[O-])c(OC)c1OC	-9.7%[5.75 µM]
CC[C@@H]1[C@@H]2C[C@H]3[C@H]4N(C)c5ccccc5[C@@]45C[C@@H]([C@@H]2[C@@H]5O)N3[C@H]1O	-2.3%[12.8 µM]
CCOC(=O)c1ccc(N=c2sc(C(=O)OC)cc(=O)n2CCCN2CCOCC2)cc1	135.8%
CCCC[S@@](=N)(=O)CC[C@@H](N)C(=O)O	-10.6%&-4.8%
Cc1ccccc1[C@@H](OCCN(C)C)c1ccccc1	12.3%[12.8 µM]
CCCc1[nH]nc2c1C(c1ccc(OCCN3CCOCC3)c(OC)c1)C(C#N)=C(N)O2 (centres undefined)	80.5%
COc1ccc(CNS(=O)(=O)c2ccc(OC)cc2)cc1	-2.7%
O=C(OCC(=O)N(C1CCCCC1)C1CCCCC1)c1ccncc1	89.1%
Cc1c(CN2CCCCC2)c(O)n(CCCO)c(=O)c1C#N	-0.5%
NC(=O)CN1CCCN(S(=O)(=O)c2ccc(Br)cc2)CC1	-0.4%
O=C(O)C1CCCN(S(=O)(=O)c2cccc3cccnc23)C1 (centres undefined)	4.8%
CCCNC(=O)c1cccc(Cn2nc(C)c(Br)c2C)c1	47.0%
CCSc1nnc(NC(=O)c2cc(C)on2)s1	7.1%
Cn1cnc2c1c(=O)n(Cc1c(Cl)cccc1Cl)c(=O)n2C	23.2%
CN(C)CCC(=O)c1ccc2c(c1)OCO2	-10.9%
O=C(CN1CCN(Cc2ccccc2F)C1=O)NCCN1CCOCC1	5.8%
CS(=O)(=O)N(CC(=O)NCc1ccc2c(c1)OCO2)c1ccc(Cl)cc1	26.2%
CCOC(=O)Cc1csc(NC(=O)COc2ccccc2)n1	8.7%
Cc1cc(S(=O)(=O)NC2CCCCC2)c(C)s1	-15.0%
(list continues)
SMILES	AmpC nodet inh
O=C(CCSc1nc(-c2ccco2)cc(C(F)(F)F)n1)NCc1ccccn1	59.2%
COC(=O)c1cc(NC(=O)C23CCC(C)(C(=O)O2)C3(C)C)cc(C(=O)OC)c1 (centres undefined)	16.2%
CN1CCC(N2CC3CC(C2)c2cccc(=O)n2C3)CC1 (centres undefined)	0.7%
COc1cc(C(=O)Nc2cc(Cl)ccc2C)c(-n2cnnn2)cc1OC	8.8%
COc1ccc(C2C=C(c3ccc(C)c(C)c3)Nc3ncnn32)c(OC)c1OC (centres undefined)	132.2%
Cc1c(C(=O)NCc2ccc3c(c2)OCO3)oc2ccccc12	-7.1%
CCCN(CCC)C(=O)Cn1ccc(=N)c2ccccc21	-1.3%
COc1ccc(-c2cnnn2-c2ccc(NC(=O)c3ccco3)cc2)cc1OC	18.5%
Clc1ccc(CSc2ncnc3c2ncn3[C@@H]2CCCCO2)cc1	24.0%[5.75 µM]
Cn1cc(-c2nc3cnc(Oc4ccccc4)nc3n(CCC#N)c2=O)c2ccccc21	-6.3%
CC1CCCN(c2nc3c(c(=O)[nH]c(=O)n3C)n2CCSc2ncccn2)C1 (centres undefined)	11.9%
COC(=O)c1ccc(C(NC(=O)OCc2ccccc2)/C(=C/[C@@H](C)C(=O)NCc2cc(C)on2)c2cccnc2)cc1 (some centres undefined)	130.0%
CCOCC(=O)Nc1nnc(COc2ccc(Cl)cc2)s1	9.3%
COc1ccccc1-c1nc(N(C)Cc2ccco2)c2ccccc2n1	73.0%
Cc1[nH]c2ccccc2c1-c1cc(-c2cc(-c3c(C)[nH]c4ccccc34)nc(N)n2)nc(N)n1	0.8%[5.75 µM]

Two records drawn at random from those above, as already listed:
SMILES	AmpC nodet inh
O=C(CCSc1nc(-c2ccco2)cc(C(F)(F)F)n1)NCc1ccccn1	59.2%
CN1CCC(N2CC3CC(C2)c2cccc(=O)n2C3)CC1 (centres undefined)	0.7%

Returning to the listing, starting six compounds before the break.
SMILES	AmpC nodet inh
Cn1cc(-c2nc3cnc(Oc4ccccc4)nc3n(CCC#N)c2=O)c2ccccc21	-6.3%
CC1CCCN(c2nc3c(c(=O)[nH]c(=O)n3C)n2CCSc2ncccn2)C1 (centres undefined)	11.9%
COC(=O)c1ccc(C(NC(=O)OCc2ccccc2)/C(=C/[C@@H](C)C(=O)NCc2cc(C)on2)c2cccnc2)cc1 (some centres undefined)	130.0%
CCOCC(=O)Nc1nnc(COc2ccc(Cl)cc2)s1	9.3%
COc1ccccc1-c1nc(N(C)Cc2ccco2)c2ccccc2n1	73.0%
Cc1[nH]c2ccccc2c1-c1cc(-c2cc(-c3c(C)[nH]c4ccccc34)nc(N)n2)nc(N)n1	0.8%[5.75 µM]
CCOc1ccc(-c2nc(C#N)c(N3CCCCCC3)o2)cc1	42.2%
Cc1ccc2c(c1)c(C)cc(=O)n2CCC(=O)O	2.5%
CN1CCN(c2ncncc2-c2cccnc2)CC1	4.5%
O=C(CN(C(=O)Cn1nnc(-c2ccc(F)cc2)n1)C1CCCC1)NC1CCCC1	17.3%
CCOC(=O)c1cnc(SCC(=O)Nc2ccc3c(c2)OCCO3)nc1N	-11.5%
COCn1c(-c2ccccc2)nc2ccccc21	0.4%
COc1cccc(CNC(=O)c2nnn(CC(=O)Nc3ccc(C)c(C)c3)c2N)c1	-8.4%
Cc1ccc(-c2csc3nc(C)n(-n4c(C)ccc4C)c(=O)c23)o1	34.9%
CC(C)(C)OC(=O)N1CCN(c2ccc(NC(=O)Cn3nnc(-c4ccccc4)n3)cc2)CC1	31.5%
O=c1c2cccnc2[nH]c(=S)n1CCCN1CCN(c2ccc(F)cc2)CC1	9.8%
CCOCc1cnc(C)nc1NCC(=O)c1c(C)n(C)c2ccc(OC)cc12	16.6%
CCSc1nc2n(n1)C(c1cccc(F)c1)C1=C(CCCC1=O)N2 (centres undefined)	12.8%
CCOC(=O)N(CC)c1ccc(C(O)(C(=O)OCC)C(F)(F)F)cc1 (centres undefined)	48.2%
CCS(=O)(=O)N1CCN(c2cccc(C)c2C)CC1	37.4%
O=C(Nc1ccon1)c1cc2c(s1)CCCC2	4.5%
Cc1cccc(Nc2nnc(SCc3cn4ccsc4n3)s2)c1	-0.4%
CCN1CCN(Cc2c(O)ccc3c(=O)c(-c4ccc(OC)c(OC)c4)c(C)oc23)CC1	13.1%
Cn1c(=O)c2c(nc(SCC(=O)N3CCc4ccccc4C3)n2C)n(C)c1=O	4.7%
CC(C)CN1C(=O)NC(NC(=O)c2cccs2)(C(F)(F)F)C1=O (centres undefined)	2.0%
CSCCC(N=Cc1c(O)n(-c2ccc(F)cc2)c(=O)[nH]c1=O)C(=O)O (centres undefined)	-1.0%
Cc1noc2nc(-c3cccs3)cc(-c3nnc4n3CCCCC4)c12	10.9%
CCN1CCN(C(=O)C(NS(=O)(=O)c2ccc3nc(C)sc3c2)C(C)C)CC1 (centres undefined)	12.7%
COc1cccc(Cn2c(N)c(C#N)c3nc4ccccc4nc32)c1OC	22.4%
Cc1[nH]c(=O)[nH]c1CN1CCCCC1	-19.2%
CCc1nnc(NC(=O)c2ccc(S(=O)(=O)N(CCOC)CCOC)cc2)o1	-2.0%
COc1cc(OC)cc(C(=O)N(Cc2cc3cc(C)ccc3[nH]c2=O)C(C)C)c1	62.0%
CCN1C(=O)C(C(=O)NC(C)c2ccccc2)C2CC1(C)Oc1ccccc12 (centres undefined)	41.8%
CCn1cc(C(=O)OCC(=O)N(C)C2CCS(=O)(=O)C2)c(=O)c2ccc(C)nc21 (centres undefined)	-5.5%
O=C(NCC(c1ccc(F)cc1)N1CCOCC1)c1ccc(Br)o1 (centres undefined)	23.2%
CCCc1c(CC)c(=N)c2ccccc2n1C	-1.2%
CC(=O)/C(=C\c1ccccc1F)C(=O)c1ccccc1	-11.9%[5.75 µM]
CC[N+](CC)(CC(=O)Nc1c(C)cccc1C)Cc1ccccc1	2.2%[12.8 µM]
COc1cccc(NC(=O)c2nc3nc(C)cc(C(F)F)n3n2)c1	4.6%
c1ccc(CCCCN2CCC(c3ccccc3)CC2)cc1	3.8%
CC(C)C(c1nnnn1Cc1ccco1)N1CCN(c2cccc(Cl)c2)CC1 (centres undefined)	29.9%
O=C(Cn1c(=O)c2c(ncn2Cc2ccccc2)n(Cc2ccccc2)c1=O)NC1CC1	?
c1ccc(CCC2=NCCn3cccc32)cc1	-4.8%
CCOc1ccccc1NC(=O)C1CC2CCCC(C1)C2=O (centres undefined)	0.9%
CCCCn1c(CCNC(=O)c2cccs2)nc2ccccc21	30.1%
O=C(O)Cc1c[nH]c2ccc(F)cc12	0.9%[5.75 µM]
COCC(=O)Nc1cccc(C(F)(F)F)c1	-1.2%
COc1cccc2c3c(c(C)nc12)CC(C)O3 (centres undefined)	13.1%
O=C(c1cccc(Cl)c1)N1CCN(C2CCCCCC2)CC1	16.8%
COc1ccc(-c2noc(N(C)CC(=O)Nc3cccc(C(F)(F)F)c3)n2)cc1	0.6%
O=C(O)Cc1cc2ccccc2nc1C(=O)O	2.2%
CCn1nnnc1SCC(=O)Nc1cc(OC)cc(OC)c1	1.6%
COCCn1c(SCc2nc3sc(C(=O)OC)c(C)c3c(=O)[nH]2)nc2ccccc21	113.1%
Cc1ccc2c(c1)NC(=O)C(CC(=O)NC1CCCCC1C)O2 (centres undefined)	3.98µM*[single pt active]
Cc1ccc2c(c1)N(CCCC(=O)NCCCN1CCCC1=O)C(=O)CO2	21.4%
CCCOc1ccc(C2C(C(=O)c3ccco3)=C(O)C(=O)N2CCN2CCOCC2)cc1OC (centres undefined)	2.8%
Cn1c(Cl)nc2ccccc21	-8.2%
Cc1csc2ncc(C(=O)Nc3ccccc3Cl)c(=O)n12	-2.4%
O=c1cc(N2CCC3(CC2)OCCO3)[nH]c(=O)n1C1CCCCC1	-5.3%
